Compound activity: PubChem BioAssay, The Scripps Research Institute Molecular Screening Center
CHRM5 agonist: human M5 muscarinic receptor agonists, primary screen, CHO-K1 cells, Fluo-8 calcium fluorescence. CHO-K1 hM5 cells; 0% DMSO wells, 100% maximal acetylcholine response. actives 0.19% (n = 360,000). activation, % at 3 µM. Muscarinic acetylcholine receptor M5 (Homo sapiens), P08912. AID 624037, 2012;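 active means activation above the run's mean over test compounds plus 3 SD, cut at about 23% in these data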;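 further: signal is peak over basal fluorescence ratio across the kinetic read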
M4 antag: human M4 muscarinic receptor antagonists, primary screen, CHO cells, Fluo-8 calcium fluorescence; Muscarinic acetylcholine receptor M4 (Homo sapiens), P08173; CHO-hM4 cells, ACh EC80; inhibition, % at 3 µM; actives 0.73% (n = 360,000); AID 624125, 2012;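 active means inhibition above its plate's cutoff, the mean inhibition of sample wells plus 3 SD, cut at about 27% in these data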;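 further: 0% = acetylcholine EC80 with DMSO and 100% = DMSO without agonist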
Target sequence (P08173 whole entry, looked up): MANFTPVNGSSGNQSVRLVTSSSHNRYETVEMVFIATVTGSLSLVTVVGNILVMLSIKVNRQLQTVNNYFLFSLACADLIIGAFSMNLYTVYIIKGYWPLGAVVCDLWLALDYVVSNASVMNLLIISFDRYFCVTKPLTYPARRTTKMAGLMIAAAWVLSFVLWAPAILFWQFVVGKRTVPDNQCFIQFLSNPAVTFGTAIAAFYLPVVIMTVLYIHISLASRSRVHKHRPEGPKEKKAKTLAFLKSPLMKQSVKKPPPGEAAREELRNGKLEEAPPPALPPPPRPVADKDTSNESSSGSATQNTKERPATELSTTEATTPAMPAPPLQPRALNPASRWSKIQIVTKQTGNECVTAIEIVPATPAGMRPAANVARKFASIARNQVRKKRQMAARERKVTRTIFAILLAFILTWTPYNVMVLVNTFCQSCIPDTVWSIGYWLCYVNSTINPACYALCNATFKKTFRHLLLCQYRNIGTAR
CHRM5 PAM: human M5 muscarinic receptor positive allosteric modulators, primary screen, CHO-K1 cells, Fluo-8 calcium fluorescence; Muscarinic acetylcholine receptor M5 (Homo sapiens), P08912; CHO-K1 hM5, ACh EC20 PAM; 0% = ACh EC20, 100% = ACh EC100; activation, % at 3 µM; actives 0.3% (n = 360,000); AID 624038, 2012;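 active means activation above the run cutoff, the mean activation of all test compounds plus 3 SD, cut at about 18% in these data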
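system = human M5 receptor in CHO-K1 cells | compound = one concentration, 3 µM final (nominal) | schedule = Post-acetylcholine fluorescence recording 140 s | signal = Fluo-8 calcium dye fluorescence, kinetic read | benchmarks = low control EC20 acetylcholine (0%), high control EC100 acetylcholine (100%) | repeats = singlicate, one well per test compound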
CHRM5 antagonist: human M5 muscarinic receptor antagonists, primary screen, CHO cells, Fluo-8 calcium fluorescence | actives 0.59% (n = 360,000) | CHO-hM5 cells, ACh EC80 | AID 624040, 2012 | Muscarinic acetylcholine receptor M5 (Homo sapiens), P08912 | inhibition, % at 3 µM;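 active means inhibition above a per-plate cutoff, the mean of that plate's test compounds plus 3 SD, cut at about 27% in these data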;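 further: 0% = acetylcholine EC80 with DMSO and 100% = DMSO without agonist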
CHRM4 PAM: human M4 muscarinic receptor positive allosteric modulators, primary screen, CHO-K1 cells, Fluo-8 calcium fluorescence; actives 0.4% (n = 360,000); Muscarinic acetylcholine receptor M4 (Homo sapiens), P08173; CHO-K1 hM4/Gqi5, ACh EC20; 0% = ACh EC20, 100% = maximal ACh; AID 624126, 2012; activation, % at 3 µM;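 active means activation above its plate's cutoff, the mean activation of sample wells plus 3 SD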; further: some results filed as inactive read as strong as hits
Active calls of the source: *.

Short keys: A = CHRM5 agonist; B = M4 antag; C = CHRM5 PAM; D = CHRM5 antagonist; E = CHRM4 PAM
> CCN(CC)N=O
  A: 0 | B: -5 | C: 2 | D: -2 | E: 8

> C[C@@H]1C[C@@H]([C@H](O)CC2CC(=O)NC(=O)C2)C(=O)[C@@H](C)C1
  A: 1 | B: -11 | C: -3 | D: 0 | E: 1

> O=c1[nH]c2ccccc2n1CCCN1CCC(n2c(=O)[nH]c3cc(Cl)ccc32)CC1
  A: -1 | B: -13 | C: -3 | D: -10 | E: -6

> Brc1ccccc1
  A: 3 | B: -3 | C: -1 | D: 0 | E: -1

> CC[C@@H](CO)NC(=O)[C@@H]1C=C2c3cccc4[nH]cc(c34)C[C@H]2N(C)C1
  A: 0 | B: 0 | C: -6 | D: 1 | E: -8

> C[C@]12CC[C@H]3[C@@H](CCC4=CC(=O)CC[C@@H]43)[C@@H]1CC[C@@H]2O
  A: 0 | B: -7 | C: 0 | D: -1 | E: 2

> CC(N)Cc1c[nH]c2ccc(OCc3cccs3)cc12 (configuration not stated)
  A: 1 | B: -6 | C: 4 | D: -7 | E: -5

> CCC1(c2ccc(N)cc2)CCC(=O)NC1=O (configuration not stated)
  A: -1 | B: 9 | C: -3 | D: 0 | E: -10

> CC(C)[C@H]1C(=O)N2CCC[C@H]2[C@]2(O)O[C@](NC(=O)[C@@H]3C=C4c5cccc6[nH]cc(c56)C[C@H]4N(C)C3)(C(C)C)C(=O)N12
  A: 1 | B: -8 | C: -5 | D: 6 | E: -1

> COc1ccc(C(=O)N2CCCC2=O)cc1
  A: 1 | B: 13 | C: -8 | D: -4 | E: -10

> CCC(CO)NC(=O)C1C=C2c3cccc4[nH]cc(c34)CC2N(C)C1 (configuration not stated)
  A: 1 | B: -11 | C: 4 | D: -5 | E: 3

> CN1CCN(C(=O)COc2ccc(-c3nc4ccccc4s3)cc2)CC1
  A: -2 | B: 5 | C: -6 | D: 3 | E: -3

> CC12CCC(=O)C=C1CCC1C2CCC2(C)C(O)CCC12 (configuration not stated)
  A: -1 | B: -21 | C: -5 | D: 6 | E: -2

Structures from the list above with sulfur, in the order listed:
Short keys: A = CHRM5 agonist; B = M4 antag; C = CHRM5 PAM; D = CHRM5 antagonist; E = CHRM4 PAM
> CC(N)Cc1c[nH]c2ccc(OCc3cccs3)cc12 (configuration not stated)
  A: 1 | B: -6 | C: 4 | D: -7 | E: -5

> CN1CCN(C(=O)COc2ccc(-c3nc4ccccc4s3)cc2)CC1
  A: -2 | B: 5 | C: -6 | D: 3 | E: -3

Three structures out of the list, sorted by heavy-atom count, smallest number first.
Short keys: A = CHRM5 agonist; B = M4 antag; C = CHRM5 PAM; D = CHRM5 antagonist; E = CHRM4 PAM
> Brc1ccccc1
  A: 3 | B: -3 | C: -1 | D: 0 | E: -1

> O=c1[nH]c2ccccc2n1CCCN1CCC(n2c(=O)[nH]c3cc(Cl)ccc32)CC1
  A: -1 | B: -13 | C: -3 | D: -10 | E: -6

> CC(C)[C@H]1C(=O)N2CCC[C@H]2[C@]2(O)O[C@](NC(=O)[C@@H]3C=C4c5cccc6[nH]cc(c56)C[C@H]4N(C)C3)(C(C)C)C(=O)N12
  A: 1 | B: -8 | C: -5 | D: 6 | E: -1

Grouped by structure: the compounds so far containing four or more nitrogen atoms (2)
Short keys: A = CHRM5 agonist; B = M4 antag; C = CHRM5 PAM; D = CHRM5 antagonist; E = CHRM4 PAM
> O=c1[nH]c2ccccc2n1CCCN1CCC(n2c(=O)[nH]c3cc(Cl)ccc32)CC1
  A: -1 | B: -13 | C: -3 | D: -10 | E: -6

> CC(C)[C@H]1C(=O)N2CCC[C@H]2[C@]2(O)O[C@](NC(=O)[C@@H]3C=C4c5cccc6[nH]cc(c56)C[C@H]4N(C)C3)(C(C)C)C(=O)N12
  A: 1 | B: -8 | C: -5 | D: 6 | E: -1

Not all compounds are listed; count on the stated rates, not on these rows.
